# TRPV1 potentiator – potentiators of human vanilloid receptor 1 (TRPV1); AID 540277; TRPV1-expressing cells, Fluo-8 calcium influx, capsaicin EC20 potentiation; host cell line not named in the record; control for the full effect not named in the record; potentiation, % at 8.33 µM; 320,000 tested, 0.02% active; Q8NER1; active means potentiation above 80%; inconclusive means 30% to 80%; inactive means below 30%; note: 0% is about no effect
# Target sequence (Q8NER1 whole entry, looked up): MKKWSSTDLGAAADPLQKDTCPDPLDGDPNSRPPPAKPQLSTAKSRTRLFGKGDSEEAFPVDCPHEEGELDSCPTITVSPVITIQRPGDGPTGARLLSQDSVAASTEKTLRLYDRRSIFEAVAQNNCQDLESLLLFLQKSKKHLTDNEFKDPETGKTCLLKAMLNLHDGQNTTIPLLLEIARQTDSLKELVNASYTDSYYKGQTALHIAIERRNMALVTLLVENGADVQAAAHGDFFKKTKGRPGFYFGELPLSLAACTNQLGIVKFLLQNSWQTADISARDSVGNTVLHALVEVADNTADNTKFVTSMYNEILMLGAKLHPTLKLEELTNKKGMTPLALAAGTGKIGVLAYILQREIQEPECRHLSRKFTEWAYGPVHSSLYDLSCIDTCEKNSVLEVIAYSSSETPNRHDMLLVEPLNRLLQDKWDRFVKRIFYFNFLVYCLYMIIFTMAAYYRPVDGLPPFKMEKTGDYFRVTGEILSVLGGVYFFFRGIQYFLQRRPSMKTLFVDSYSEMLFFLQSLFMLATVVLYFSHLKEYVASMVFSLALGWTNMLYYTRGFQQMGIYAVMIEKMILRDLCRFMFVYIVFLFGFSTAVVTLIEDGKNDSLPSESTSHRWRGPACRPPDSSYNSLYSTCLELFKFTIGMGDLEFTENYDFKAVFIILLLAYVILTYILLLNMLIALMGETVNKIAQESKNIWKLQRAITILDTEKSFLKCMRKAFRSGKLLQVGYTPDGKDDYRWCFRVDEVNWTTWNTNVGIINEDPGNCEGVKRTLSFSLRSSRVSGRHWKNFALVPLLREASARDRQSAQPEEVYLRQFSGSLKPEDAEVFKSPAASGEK
#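 TRPV1-expressing cells were cultured overnight at 35.5C and loaded with Fluo-8 calcium dye for 40 to 90 min at room temperature. After a 10 s baseline, compound was added and calcium influx was read kinetically for 3 min (ex 480/em 520 nm).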
# TRPML1 inh – blocks the human TRPML1 channel. Q9GZU1. TRPML1-inducible cells, Ca2+ dye fluorescence, FDSS; active compounds read low; inhibition of EC80 agonist-evoked calcium signal. activity change, negative = inhibition, % (test concentration not listed). 390,000 tested, 0.02% active. AID 624415; in the data active means activity change below about -50%; inconclusive means about -30% to -50%; inactive means above about -30%;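 note: stimulus is agonist 54-4 at its EC80 concentration; % is set by controls: 0 for no effect and ±100 for the full control effect; compound concentration not given in the record; the text of the record puts the active cut at -80%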
#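 Calcium fluorescence in TRPML1-DL cells induced overnight with Tet: a 110 s read after compound pin addition, then a 110 s antagonist read after challenge with 54-4 at 4 uM final (EC80).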
# gsp ag – gsp mutant agonism; Potency, µM (series often up to 76.9 µM), without a hit: top-dose activation (cAMP increase), actives largely listed as activators; AID 624287; gsp mutant cells, cAMP HTRF, 30 min; control for the full effect not named in the record; 340,000 tested, 0.13% active; active = well fitted activation curve with a large enough effect; inconclusive = small, poorly fitted or top-dose-only effect, or another doubt; inactive = no such curve, though single readings can be large or run the other way; cell line not stated here;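 note: phosphodiesterase inhibitor Ro 20-1724 added with compounds to block cAMP breakdown; potency is the fitted concentration of half-maximal effect; nearly all actives have a fitted effect of over 60% in size; about a fifth of the inactives were tested at one dose only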
#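 Cells stably selected in G418 were plated at 2000/well, grown 16-24 hr, then given compounds in DMSO with the PDE inhibitor […] (300 uM solution added) for 30 min at 37C; cAMP was read by HTRF.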
# ClpP mod – qHTS Assay for Activators of ClpP. Potency, µM (series often up to 57.5 µM), for inactives: at the highest dose activity change, negative = active. 340,000 tested, 1.9% active. purified B. subtilis ClpP, FRET peptide cleavage, 20 min; active = well fitted falling curve with a large enough effect; inconclusive = small, poorly fitted or top-dose-only effect; inactive = no such curve, though single readings can be large or run the other way; note: potency is the fitted concentration of half-maximal effect; the source files actives as falling curves though it sought activators and does not explain the sign; nearly all actives have a fitted effect of over 65% in size; many hits overshoot -100%
# Target sequence (P80244 whole entry, looked up): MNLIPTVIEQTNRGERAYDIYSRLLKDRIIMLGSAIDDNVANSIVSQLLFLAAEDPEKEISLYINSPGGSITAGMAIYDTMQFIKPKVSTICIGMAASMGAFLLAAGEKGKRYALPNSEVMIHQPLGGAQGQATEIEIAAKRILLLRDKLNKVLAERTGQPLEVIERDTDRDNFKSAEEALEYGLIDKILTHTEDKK
#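 Buffer: 100 mM Tris/HCl pH8, 100 mM KCl, 0.05% low protease BSA, 2.5% glycerol, 0.01% Tween-20. ClpP 10 microg/mL final; 20 min RT; delta FRET normalized to ADEP and DMSO controls.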
# gsp antagonist – antagonists of gsp mutant (McCune-Albright syndrome); 340,000 tested, 0.4% active; AID 624288; gsp-mutant cells, cAMP HTRF, 30 min; control for the full effect not named in the record; Potency, µM (titrated, usually from 76.9 µM), inactives show at the highest dose activity change, negative = inhibition, usual class: inhibitors; active = falling curve of any shape with a large fitted effect; inconclusive = falling curve, mostly with a smaller effect; inactive = flat or rising curve; cell line not stated here;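 note: intracellular cAMP measured with PDE inhibitor Ro 20-1724 present during compound exposure; potency is the fitted concentration of half-maximal effect; % is set by controls: 0 for no effect and ±100 for the full control effect; nearly all actives have a fitted effect of over 65% in size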
#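 Cells, 2000/well, grown 16–24 h in DMEM 10% FBS with 0.5 mg/ml G418, then compounds plus […] (300 uM addition stock), 30 min at 37C. cAMP read by HTRF (cAMP-d2 and anti-cAMP antibody-K in lysis buffer) after 30 min RT.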
# Sfp inh – inhibitors of Bacillus subtilis Sfp phosphopantetheinyl transferase; Q9F4F7; Biochemical Sfp PPTase activity, qHTS; Potency, µM, for the others: max response, negative = inhibition, most hits filed as inhibitors; 310,000 tested, 3.5% active; active = well fitted inhibition curve with a large enough effect; inconclusive = small, poorly fitted or top-dose-only effect, or another doubt; inactive = no such curve, though single readings can be large or run the other way;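 note: the enzyme is Sfp with the accession as filed and its product quenches rhodamine fluorescence; potency is the fitted concentration of half-maximal effect; 0% = enzyme reaction without inhibitor and -100% = no enzyme wells; top concentration of the series not given in the record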
#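 Fluorescence-quenching assay: 15 nM Sfp-PPTase preincubated 15 min at room temperature with compound, then 5 uM rhodamine-CoA and 12.5 uM BHQ-2-labelled YbbR peptide added. Fluorescence (ex 525/em 598 nm) read at start and after 30 min; difference gives rate.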
# Menin MLL FP FL – displaces fluorescein MLL peptide from human menin | 290,000 tested, under 10 active | Fluorescence polarization, fluorescein-MLL peptide displacement from menin | AID 1766 | FP activity change, % at 61.4 µM; inconclusive = falling polarisation curve, or a change in total fluorescence; inactive = total fluorescence flat and polarisation flat or rising; no compound was filed as active; the % refers to the polarisation; negative = inhibition;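 note: % of control where 0% means no effect; inhibitors lower the polarisation; unlabelled MLL peptide was the positive control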
# * hit, by the source's call; ? = inconclusive; . = not tested or not shown; & = joins results of further samples; [ ] = dose if it differs, or a comment.
SMILES,TRPV1 potentiator,TRPML1 inh,gsp ag,ClpP mod,gsp antagonist,Sfp inh,Menin MLL FP FL
Cc1cc2cc(C)c3nnc(SCC(=O)N4CCN(C(=O)c5ccco5)CC4)n3c2cc1C,.,4,15%,-1.3%,-8%,.,.
Cc1ccc(N=C2CCCCCN2C)c(C#N)c1,-46,-18,12%,-5.1%,6%,-14%,-0.1
CCC(Sc1nncn1C)C(=O)Nc1cc(C)on1 (stereo not drawn),5,8,-38%[inhibitor],.,8%,-11%,-1.0
O=C(c1ccc(Br)cc1)c1cn[nH]c1-c1ccccc1O,0,-6,6%,.,-6%,22%,-1.9
O=C(Nc1cccnc1Cl)C1c2ccccc2Oc2ccccc21,7,24,?,-0.2%,-1%,3%,1.0
CN(C)C(=O)CSc1n[nH]c(=O)[nH]c1=O,8,-11,-45%[inhibitor],-1.4%,9%,-14%,-3.3
CCCOC(=O)C1C2C=CC3(CN(c4cccc(Cl)c4)C(=O)C13)O2 (stereo not drawn),-3,-2,-21%,1.0%,9%,16%,1.3
CCOC(=O)c1c(N)nn(C(=O)CC)c1-c1ccccc1,-3,4,-5%,-1.9%,-7%,9%,4.1
COc1ccc(OCC(=O)NC(=S)N2CCCc3ccccc32)cc1,-17,2,-82%[inhibitor],-1.5%,-2%,56µM*,4.2
O=C(NCC(=O)N(Cc1cccs1)C(C(=O)NC1CCCCC1)c1cccnc1)c1ccco1 (stereo not drawn),24,8,0%,1.5%,7%,1%,-2.2
COc1cc(/C=C/C(=O)OCC(=O)NCc2cccs2)ccc1OCC#N,-8,-12,-5%[15.4 µM],1.3%,8%,-5%,3.8
CCCCN(CCCC)C(=O)c1sc2nc(N3CCOCC3)c3c(c2c1N)CCCC3,-4,2,?,?,17%,11µM*,2.6
Cc1nn(C)c(C)c1CNC(=O)c1cnn2c1NC(c1ccccc1)CC2C(F)(F)F (stereo not drawn),-50,6,-46%[inhibitor],0.0%,-8%,-5%,1.1
Cc1ccc(CNC(=O)c2ccc3c(=O)[nH]c4c(C(=O)NCC5CCCO5)sc(=S)n4c3c2)cc1 (stereo not drawn),22,-7,6%[15.4 µM],-0.6%,-31%,?,2.7
CC(/C=N/NC(=O)CSc1n[nH]c(=O)[nH]c1=O)=C\c1ccccc1,.,0,-5%[15.4 µM],.,-5%,15%,-1.3
O=C(CN1CSCC1=O)N1CCN(S(=O)(=O)c2ccc(Cl)cc2)CC1,0,8,2%,0.8%,3%,.,.
CS(=O)(=O)N(CC(=O)N1CCCCCC1)c1ccc(Br)cc1,-8,-14,-39%,-1.0%,3%,12%,-0.2
O=C(Cc1ccccc1)NN1C(=O)C2C3C=CC([C@@H]2C1=O)C31CC1 (stereo partly drawn),0,-7,6%,0.9%,9%,24%,0.7
Cc1cc(C(F)(F)F)nc(-n2cc(-c3ccccc3)nn2)n1,-3,3,-41%,.,3%,11%,-0.7
CCOC(=O)N1CCN(C(=O)c2cnc(Nc3ccccc3OC)c3ccccc23)CC1,-6,-7,-3%,1.5%,-11%,12%,0.1
CCCN1CCN(CCCNC(=O)c2ccccc2NC(=O)C2=C(C)OCCS2)CC1,?,3,10%,-7.8%,0%,1%,.
CC1=NN(c2ccc(C(=O)O)cc2)C(=O)/C1=C\c1ccc(OC(=O)c2cccs2)cc1,?,-9,-4%[15.4 µM],.,1%,?,-5.7
O=C(Cc1ccccc1)NCc1cccnc1,-13,-8,17%[15.4 µM],0.6%,14%,17%,-4.1
Cc1ccccc1NC(=O)C1c2cccc[n+]2CC(=O)N1Cc1ccc2c(c1)OCO2 (stereo not drawn),15,18,11%,-1.4%,-3%,-12%,1.5
CCOC(=O)c1c(C)[nH]c(C)c1S(=O)(=O)NCC1CCN(Cc2cccc(F)c2)CC1,-7,29,-11%,-1.4%,8%,-1%,.
SMILES,TRPV1 potentiator,TRPML1 inh,gsp ag,ClpP mod,gsp antagonist,Sfp inh,Menin MLL FP FL
COc1cccc(N2CCN(C(C)C(=O)NC34CC5CC(CC(C5)C3)C4)CC2)c1 (stereo not drawn),-13,34,2%,.,-8%,14%,0.4
CCCCNC(=O)C1c2ccccc2C(=O)N(c2ccc(OC)cc2)C1c1ccc(OC)cc1 (stereo not drawn),-2,-2,1%,-9.9%,-16%,-14%,-0.4
COC(=O)c1ccc(COc2ccc(C)cc2[N+](=O)[O-])o1,2,22,-3%[15.4 µM],.,5%,1%,0.5
C=CCNC(=O)C(=O)c1cccn1-c1ccsc1C(=O)OC,-3,-17,0%,-0.9%,10%,10%,0.5
CCOC(=O)c1c(C)n(C)c2ccc(OC)c(NC(=O)CN3CCSCC3)c12,3,2,?,0.6%,18%,13%,-2.6
COc1ccc(COc2ccc(S(=O)(=O)N3CCCC3)cc2C(N)=O)cc1F,-7,-3,-39%[inhibitor],0.1%,-1%,5%,0.2
COc1ccc(N(C(=O)c2ccco2)C(C(=O)NC2CCCCC2)c2cccs2)cc1OC (stereo not drawn),-3,11,23%,-2.1%,-6%,8%,2.2
Cc1nnc(N/N=C/c2ccccn2)[nH]c1=O,.,3,24%,-1.0%,4%,?,0.4
CCOc1ccccc1NC(C)C(=O)Nc1cc(C(F)(F)F)ccc1N1CCOCC1 (stereo not drawn),-6,8,-3%,-1.8%,3%,-7%,-0.1
Cc1ccc2oc(-c3cccc(NC(=O)Cn4cnc5c(=O)n(C)c(=O)n(C)c54)c3)nc2c1,12,.,.,.,.,4%,-4.5
O=C(OCC(=O)N1CCc2ccccc21)c1ccc[n+]([O-])c1,8,-9,-4%,0.2%,11%,15%,-2.4
Cc1cc(C)n(CNc2nc(C(F)(F)F)cs2)n1,-14,-12,5%,-1.2%,7%,7%,3.0
CCOC(=O)CN1C(=O)N[C@@H](c2ccc(Br)cc2)C(C(C)=O)=C1C,-2,.,.,.,.,7%&1%,-3.5&0.0
CCN(C[C@H]1N[C@@](C)(C(=O)OC)[C@H]2C(=O)N(Cc3ccccc3)C(=O)[C@@H]12)S(=O)(=O)c1ccc(C(C)(C)C)cc1,.,-8,.,1.3%,-21%,.,.
CCCC(=O)OCC(=O)Nc1ccc([N+](=O)[O-])cc1C#N,24,31,10%,-0.9%,5%,15%,1.4
CCOc1ccc(S(=O)(=O)Nc2cccc(C(=O)NCCCN3CCOCC3)c2)cc1,17,-13,-26%,-5.7%,-1%,.,.
O=C(Cc1ccccc1)Nc1cccnc1,12,-2,-2%[15.4 µM],.,14%,15%,-2.8
Cc1ccc(NC(=O)Cn2c(=O)n(CCC(=O)NC3CCN(Cc4ccccc4)CC3)c(=O)c3ccccc32)cc1,-5,.,9%,0.8%,-6%,19%,-2.6
CC(N)=Nc1ccc([N+](=O)[O-])cc1,4,7,30%,-0.9%,14%,-2%,10
O=C(CSc1nccc(=O)[nH]1)Nc1ccc(F)c([N+](=O)[O-])c1,13,-10,-18%,1.3%,-7%,1%,4.6
C/C(=N\NC(=O)C1(C)CC1(Br)Br)c1ccc([N+](=O)[O-])cc1 (stereo not drawn),-7,-11,4%[15.4 µM],.,-6%,6%,-0.3
COc1ccc(C(=O)C2CCCN(Cc3ccc(C#CCCO)cc3)C2)cc1F (stereo not drawn),4,21,14%[15.4 µM],.,7%,?,4.3
COc1ccc(OC)c(/C=C2\SC(N3CCCC(C)C3)=NC2=O)c1 (stereo not drawn),28,54,?,-7.8%,-16%,?,13
O=C(NNC(=S)Nc1ccccc1)C1CCCCC1,-6,30,-47%[inhibitor],-1.5%,6%,-3%,-2.1
Cc1cc(Nc2c(C)n(C)n(-c3ccccc3)c2=O)c2ccccc2n1,?,-2,1%[15.4 µM],-0.4%,11%,9%,2.0

# Brought forward from above: two compounds, followed by the next part.
SMILES,TRPV1 potentiator,TRPML1 inh,gsp ag,ClpP mod,gsp antagonist,Sfp inh,Menin MLL FP FL
O=C(NNC(=S)Nc1ccccc1)C1CCCCC1,-6,30,-47%[inhibitor],-1.5%,6%,-3%,-2.1
Cc1cc(Nc2c(C)n(C)n(-c3ccccc3)c2=O)c2ccccc2n1,?,-2,1%[15.4 µM],-0.4%,11%,9%,2.0
CC(C)(C)NC(=O)C(c1ccncc1)N(Cc1cccs1)C(=O)Cn1nnc(-c2cccs2)n1 (stereo not drawn),-13,-14,-6%,-1.3%,-15%,?,8.6
COc1ccc(-c2nc3c(-c4ccc(Cl)cc4)cnn3cc2C)cc1F,-5,5,-5%[15.4 µM],.,18%,-26%,-0.5
C=CC1(C)CN(Cc2ccco2)S(=O)(=O)c2c(F)cccc2O1 (stereo not drawn),.,6,.,1.0%,3%,.,.
CNC(=O)CN(c1cc([N+](=O)[O-])ccc1OC)S(C)(=O)=O,-9,6,1%,-2.9%,9%,5%,-1.6
CCC(=Nc1ccccc1OC)C1=C(O)CC(c2ccccc2)CC1=O (stereo not drawn),-1,-3,18%,.,-5%,10%,-6.9
Cc1cc(NC(=O)CCC(=O)N(CC(=O)NCC2CCCO2)Cc2ccc(F)cc2)no1 (stereo not drawn),26,17,-5%,-3.1%,2%,-14%,2.6
COc1ccc(NCCC#N)cc1,6,-3,-34%,-3.7%,-10%,3%,1.4

# Four of the compounds above, field by field.
CC(C)(C)NC(=O)C(c1ccncc1)N(Cc1cccs1)C(=O)Cn1nnc(-c2cccs2)n1 (stereo not drawn)
  TRPV1 potentiator: -13 | TRPML1 inh: -14 | gsp ag: -6% | ClpP mod: -1.3% | gsp antagonist: -15% | Sfp inh: ? | Menin MLL FP FL: 8.6

COc1ccc(-c2nc3c(-c4ccc(Cl)cc4)cnn3cc2C)cc1F
  TRPV1 potentiator: -5 | TRPML1 inh: 5 | gsp ag: -5%[15.4 µM] | ClpP mod: . | gsp antagonist: 18% | Sfp inh: -26% | Menin MLL FP FL: -0.5

C=CC1(C)CN(Cc2ccco2)S(=O)(=O)c2c(F)cccc2O1 (stereo not drawn)
  TRPV1 potentiator: . | TRPML1 inh: 6 | gsp ag: . | ClpP mod: 1.0% | gsp antagonist: 3% | Sfp inh: . | Menin MLL FP FL: .

CNC(=O)CN(c1cc([N+](=O)[O-])ccc1OC)S(C)(=O)=O
  TRPV1 potentiator: -9 | TRPML1 inh: 6 | gsp ag: 1% | ClpP mod: -2.9% | gsp antagonist: 9% | Sfp inh: 5% | Menin MLL FP FL: -1.6

# Screens: PubChem BioAssay, National Center for Advancing Translational Sciences (NCATS)
